Assay outcomes deposited in PubChem BioAssay by ICCB-Longwood Screening Facility, Harvard Medical School.
KSHV LANA nucl – LANA-nucleosome interaction inhibition. FITC-LANA1-23 / chicken nucleosome fluorescence polarization; hits give low values. AID 720717. z-score (concentration not given with the values). actives 0.3% (n = 51,000);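 active = both repeat wells score below -2 in polarization z-score versus plate sample wells, excluding overly bright wells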;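 also: 100 nL library stock added to about 30 µL; numbers are from one replicate; some results filed as inactive read as strong as hits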
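Material: Purified chicken nucleosomes with FITC-labelled LANA N-terminal peptide (1-23) | Reagent: 50 nM FITC-LANA1-23 probe | Medium: TEN-BT buffer, pH 7.5 | Times: 10–45 min incubation at room temperature | Detection: Fluorescence polarization | Replication: Duplicates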
Ab BasE inh – blocks the Acinetobacter baumannii siderophore enzyme BasE; actives 0.1% (n = 84,000); inhibition, % (test concentration not listed); purified BasE, fluorescence polarization binding displacement;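 active = both replicates above 25% with normal brightness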;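 also: 0% = negative plate control signal and 100% = positive plate control signal; stock transfer was 100 nL into about 30 µL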
The depositor's hits bear a star; . = not tested or not shown. These rows are one share of the data; count on the stated rates, not on these rows.

Values run as follows: Ab BasE inh	KSHV LANA nucl
- CC1CC(C)CN(C(=O)Nc2cccc(Cl)c2)C1 (stereo unspecified)
→ 0.3	-0.58
- Cn1ncc(NC(=O)Nc2ccc(F)cc2F)c1C(N)=O
→ 12	0.12
- CN(C)S(=O)(=O)c1ccc(C(=O)C2=C3SC=C(c4ccc(F)cc4)N3CC2)cc1
→ -3.1	.
- Cc1nn(-c2ccc(Cl)cc2)c2sc(C(=O)OCCC3CCCCN3C)cc12 (stereo unspecified)
→ -4.2	.
- CNC(=O)CSc1nnc(-c2ccco2)n1CC1CCCO1 (stereo unspecified)
→ -2.2	1.9
- CCOC(=O)C1CCCN(Cc2ccccc2)C1 (stereo unspecified)
→ 1.0	.
- Cc1noc(C)c1COC(=O)C1CSC2(C)CCC(=O)N12 (stereo unspecified)
→ -0.5	.
- CCc1ccc(NC(=O)NC2CCN(Cc3ccccc3)CC2)cc1
→ -1.2	-0.95
- NNC(=O)OC12CC3CC(CC(C3)C1)C2
→ 2.3	.
- CCc1ccc(NC(=O)N(C2CCCCC2)C(C)c2cccnc2)cc1 (stereo unspecified)
→ -0.1	0.83
- CC(=O)Nc1cccc(C(=O)NCCc2nc3ccccc3[nH]2)c1
→ 0.3	0.035
- O=C(CSC1=NCCS1)NC1CCCc2ccccc21 (stereo unspecified)
→ 2.1	.
- CCC(C)NC(=O)CSc1ncccc1C(=O)OC(C)C (stereo unspecified)
→ 0.1	-0.53
- CN1CCN(CCCNC(=O)Cc2ccc(NC(=O)N3CCSc4ncccc43)cc2)CC1
→ -0.8	.
- COCCN(Cc1c(-c2cccs2)n(C)c2ccccc12)C(=O)Nc1ccccc1
→ -0.1	-0.65
- O=C(COc1ccc2oc(-c3ccccc3)cc(=O)c2c1)N1CCCCC1
→ -2.0	2.2
- O=C(OCc1cccc(Cl)c1)c1ccc2c(c1)OCO2
→ -0.2	0.24
- NC(=O)c1ccccc1NC(=O)CS(=O)(=O)Cc1ccccc1
→ -1.1	0.57
- O=C(COc1ccccc1)NCc1nc(-c2ccccc2)no1
→ 1.8	-0.092
- CCC1N(c2ccccc2)CCN1c1ccccc1
→ -0.4	-0.36
- CCc1ccc(NC(=O)CCCN2C(=O)COc3ccc(C)cc32)cc1
→ -2.6	0.66
- CCOC(=O)c1cnc(SCC)[nH]c1=O
→ -2.2	-0.75
- Cc1cc(C)c(/C=C(\C#N)C(N)=O)c(C)c1
→ -1.3	0.81
- CSc1ccc(CN(C)CC(=O)NC(=O)Nc2ccc3c(c2)OCCO3)cc1
→ 0.9	.
- c1cc2c(nn1)CCc1nonc1-2
→ -1.4	0.5
- O=C1c2ccccc2S(=O)(=O)NN1CCN1C(=O)c2ccccc2S1(=O)=O
→ 1.0	.
- CN(C)C(=S)Nc1ccccc1OC(F)F
→ 4.4	-0.29
- COc1ccc(C(=O)O)cc1
→ -1.3	.
- COC(=O)CSC1=NS(=O)(=O)c2ccccc2N1
→ 2.1	0.076
- CN(Cc1ccccc1)C(=O)CSc1nc2ccccc2c(=O)n1Cc1ccco1
→ -3.6	.

Structural class: those above with a Cl atom
Values run as follows: Ab BasE inh	KSHV LANA nucl
- CC1CC(C)CN(C(=O)Nc2cccc(Cl)c2)C1 (stereo unspecified)
→ 0.3	-0.58
- Cc1nn(-c2ccc(Cl)cc2)c2sc(C(=O)OCCC3CCCCN3C)cc12 (stereo unspecified)
→ -4.2	.
- O=C(OCc1cccc(Cl)c1)c1ccc2c(c1)OCO2
→ -0.2	0.24

Going on with the list.
Values run as follows: Ab BasE inh	KSHV LANA nucl
- NC(=O)c1nn(CC(=O)N2CCN(Cc3nc4ccccc4s3)CC2)c(=O)c2ccccc12
→ -0.6	.
- CCOC(=O)c1c(C)[nH]c(/C=N/NC(=S)NCc2ccco2)c1Cc1cccc(Cl)c1
→ 0.2	.
- CCS(=O)(=O)Nc1cc(C(=O)OC)ccc1C
→ -3.2	0.073
- O=C(Nc1ccc(N2CCN(c3ccc(C(F)(F)F)cn3)CC2)nc1)c1cccs1
→ 0.6	.
- Cc1cccc(-n2ccnc2SCC(=O)N2CCC(C(N)=O)CC2)c1C
→ 3.3	.
- NS(=O)(=O)c1ccc(CNC(=O)c2cccc(Cl)c2)cc1
→ 0.3	.
- Cc1c(Cl)cccc1NC(=S)N(CCN(C)C)C1CCN(C(C)C)CC1
→ 4.8	0.87
- Cc1nc(=S)sn1-c1nc(Nc2ccccc2)nc(Nc2ccccc2)n1
→ 0.8	0.56
- [N-]=[N+]=c1c(=O)ccc2c(=O)c3ccccc3c(=O)c1=2
→ 21	-1.7
- COc1ccc(OC)c2c(C)cc(N3CCN(C(=O)c4ccc(Cl)cc4)CC3)nc12
→ 4.8	0.33
- O=C(NC(=S)NCCC1=CCCCC1)c1ccco1
→ -0.1	.
- CC1CCN(CC(=O)Nc2cccc(C(F)(F)F)c2)CC1
→ 0.7	-2.2
- CNc1nc2c(Cl)cc(Cl)cc2s1
→ -2.3	.
- CC(C)N(C(=O)CSc1nnc2sc3ccccc3n12)c1ccccc1
→ -1.2	.
- COc1nc2ccccc2nc1CCC(=O)NC1CCCCCC1
→ -1.3	1.9
- CC(=O)NC(Cc1ccccc1)C(=O)NC1CCN(C(=O)c2ccccc2)CC1 (stereo unspecified)
→ -0.8	0.58
- COc1cccc2c1OCC(C#N)=C2
→ .	-0.19
- Fc1ccc(-n2nnnc2-c2cccc(C(F)(F)F)c2)cc1F
→ .	-0.51
- Cc1ccc(CN2CCC(CNc3ncnc4onc(C)c34)CC2)cc1
→ -2.0	.
- Cc1noc(C)c1COC(=O)c1cccnc1SCC(=O)Nc1ccccc1OC(F)F
→ -1.2	.
- O=S(=O)(NCC(O)CN1CCOCC1)c1ccc2ccccc2c1 (stereo unspecified)
→ -0.2	.
- N/N=c1/nc2sccn2c2ncccc12
→ 3.5	0.64
- CN(C)/C=C/C(=O)c1cc(F)ccc1O
→ 1.9	.
- CCn1c2ccccc2c2cc(CN3CCN(Cc4cccc(C)c4)CC3)ccc21
→ -1.0	.
- COc1ccc(C2CCCCCN2C(=O)c2nn(C)c(=O)c3ccccc23)cc1 (stereo unspecified)
→ -0.8	.
- O=C(c1ccccn1)N1CCC(C(O)(c2ccccc2)c2ccccc2)CC1
→ -1.6	.
- O=c1[nH]c2ccccc2c(=O)n1CCN1CCSCC1
→ .	-0.66
- Clc1nc(NCCN2CCOCC2)nc(NC2CCCCC2)n1
→ 2.2	.
- Cn1c(SCc2cccc(C#N)c2)nc2ccccc2c1=O
→ 1.5	-0.35
- CCn1c(-c2csc3ccccc23)n[nH]c1=S
→ 0.1	.

Profiles, looked up by structure. Order of values: Ab BasE inh, KSHV LANA nucl
`Fc1ccc(-n2nnnc2-c2cccc(C(F)(F)F)c2)cc1F` across the screens: ., -0.51
`CCS(=O)(=O)Nc1cc(C(=O)OC)ccc1C` across the screens: -3.2, 0.073
`Clc1nc(NCCN2CCOCC2)nc(NC2CCCCC2)n1` across the screens: 2.2, .

Continued.
Values run as follows: Ab BasE inh	KSHV LANA nucl
- O=C(c1ccco1)N1N=C(c2ccccc2)CC1c1ccccc1 (stereo unspecified)
→ 1.0	0.095
- Nc1cc(N)nc(SCC(=O)N2CCCCC2)n1
→ -0.9	0.13
- CCCCN(CC)C(=O)c1ccccc1SCC
→ -2.4	-0.12
- CC1CCCC(C)N1NC(=O)c1cccc(N(C)C)c1 (stereo unspecified)
→ 1.3	.
- Cc1ccc(Cn2nnc(-c3ccccc3C)n2)cc1
→ 2.8	-0.044
- CCCc1c(C)[nH]c2ccc(C(=O)O)cc2c1=S
→ 1.1	0.23
- Cc1nnc(SCCCN2C(=O)c3ccccc3C2=O)o1
→ 0.2	-1.2
- CC(C)Oc1nsnc1N1CCOCC1
→ 0.1	-0.074
- CNS(=O)(=O)c1cccc(C(=O)OCC(N)=O)c1
→ -0.4	.
- COc1ccccc1C(=O)NC(=S)c1c(C)nc2sccn12
→ 1.4	.
- O=C(NC1=NCCS1)c1cccc(S(=O)(=O)N2CCCc3ccccc32)c1
→ 0.7	.
- Cc1cn(CCC#N)nc1C=Nc1ccc(O)cc1
→ 2.0	.
- CCCn1c(SCC(=O)N2CCN(S(=O)(=O)c3ccc(Cl)cc3)CC2)n[nH]c1=O
→ -1.2	.
- Cc1ccc(NC(=O)C(C)Nc2cccc(-c3nnc4n3CCCCC4)c2)cc1 (stereo unspecified)
→ -0.6	.
- CN(CC(=O)Nc1ccc(S(=O)(=O)N2CCCC2)cc1)CC(=O)Nc1ccc(F)c(F)c1F
→ -1.4	.
- CCCc1cc(=O)oc2c(C)c(OC(C)C(=O)O)ccc12 (stereo unspecified)
→ 2.5	.
- CC(C)CC(=O)Nc1cc(C(F)(F)F)cc(C(F)(F)F)c1
→ 1.8	-1.3
- COc1ccc(NCc2cc(=O)n3c(-c4ccccc4)csc3n2)cc1
→ 0.7	.
- CCC1CCCCN1C(=O)c1cnn(-c2ccc(F)cc2)c1-n1cccc1 (stereo unspecified)
→ -1.9	-0.27
- O=C1CN(C(=O)c2ccc3c(c2)OCO3)C(c2ccccc2)c2cc(F)ccc2N1 (stereo unspecified)
→ -1.3	-1.5
- CCc1ccc2nc(NC(=O)c3cc(N4CCOCC4)ccn3)sc2c1
→ 0.8	.
- O=C(c1c[nH]c2ccccc12)N1CCOCC1
→ .	-0.052
- O=C(Nc1cc2c(s1)CCCC2)c1ccccc1
→ -1.9	0.3
- CC(C)=CC1C(C(=O)Nc2ccc(S(=O)(=O)N3CCOCC3)cc2)C1(C)C (stereo unspecified)
→ -3.3	0.21
- Cc1ccc(O)c([C@H](CCN(C(C)C)C(C)C)c2ccccc2)c1
→ .	-0.017
- CN(C)C(=O)C(Sc1nnc(-c2cccs2)n1C1CC1)c1ccccc1 (stereo unspecified)
→ -0.3	.
- O=C(O)Cc1nnc(-c2ccc3c(c2)OCO3)o1
→ -0.1	0.5
- CCc1cc2c(=O)oc(-c3ccc(Br)cc3)nc2s1
→ 1.4	.
- Cc1cc(C)c(C)c(S(=O)(=O)N2CCN(C(=O)CCN3C(=O)C4CC=CCC4C3=O)CC2)c1C (stereo unspecified)
→ -0.1	.
- Cc1nn(-c2cccc(C(F)(F)F)c2)c(Cl)c1/C=N/NC(N)=O
→ 1.6	.

Further entries
Values run as follows: Ab BasE inh	KSHV LANA nucl
- Cc1nc(Nc2ccc(Cl)cc2Cl)c(C#N)c(N(C)C)n1
→ 2.5	-0.04
- Cc1ccc(C)c(N2N=C(C(=O)Nc3ccc(N4CCOCC4)cc3)CCC2=O)c1
→ -1.4	.
- CCS(=O)(=O)c1ccc(C(=O)Nc2nccs2)cc1
→ 1.6	0.48
- CCOC(=O)c1nc(NCc2ccccc2)c2ccccc2n1
→ -0.9	.
- O=C(Oc1ccc2ccccc2c1C1SCCS1)c1cccs1
→ 2.4	.
- CCC(=O)N1CCN(c2ccc(NC(=O)c3ccccc3)cc2)CC1
→ 0.6	-1
- CCOC(=O)C1CCCN(Cc2cccs2)C1 (stereo unspecified)
→ -1.4	-0.1
- Cc1cc(=O)[nH]n(CCO)c1=O
→ -2.8	2.3
- COc1ccc(CN(C)C(=O)COC(=O)c2c(-c3ccccc3Cl)noc2C)cc1
→ -0.8	.
- Cc1cc(C)n(-c2ccc(C(=O)NCCSCc3ccco3)cc2)n1
→ 0.1	.
- O=C(OCCOc1ccc(Br)cc1)c1ccc(O)cc1
→ 2.7	.
- COC(=O)c1ccoc1-c1sc2nc(C)cc(C)c2c1N
→ 9.7	.
- N#CC(C#N)=CNc1ccccc1C(=O)NCCCn1ccnc1
→ -0.3	0.26
- CN1C(=O)CC(N2CCN(C/C=C/c3ccccc3)CC2)C1=O (stereo unspecified)
→ -2.9	0.048
- O=C(COC(=O)C1Cc2ccccc2CN1C(=O)c1ccco1)NC12CC3CC(CC(C3)C1)C2 (stereo unspecified)
→ 1.6	.
- Cc1ccc(S(=O)(=O)N2CCC(NC(=O)c3ccccc3)CC2)cc1
→ 1.6	-0.7
- CCC1(c2ccccc2)NC(=O)N(Cc2ccccc2)C1=O (stereo unspecified)
→ 1.4	.
- CSc1nc(NCCO)c(C#N)c(-c2ccc(C)cc2)n1
→ -4.9	-0.86
- O=C(c1c(F)cccc1F)N1CCCC1
→ 1.5	0.0075
- CN(C)CCCNc1ncnc2c1oc1ccccc12
→ -1.8	.
- COc1ccc(Nc2ncn[nH]2)cc1
→ .	-0.7
- O=C1c2ccccc2-c2nn(C(=O)C3CCN(S(=O)(=O)c4cccs4)CC3)c3cccc1c23
→ 1.9	.
- CCOC(=O)c1c(/N=C/c2ccc(N(C)C)cc2)sc(C)c1C
→ -12	.
- CCN(c1ccc(OC)cc1)S(=O)(=O)c1cc(-c2onc(C)c2C)ccc1OC
→ -0.9	.
- Cc1ccc(NC(=O)NCc2nc3ccccc3n2C)cc1
→ -0.5	.
- O=C(Cn1ccccc1=O)Nc1ccc(N2CCOCC2)cc1N1CCOCC1
→ 1.5	.
- CSc1ccc(S(=O)(=O)N2CCC(C(=O)Nc3ccc4c(c3)OCO4)CC2)cc1
→ -2.1	-0.44
- CN(CC(=O)Nc1ccc(N2CCOCC2)cc1)CC(=O)Nc1sc2c(c1C#N)CCCC2
→ 1.5	.
- NC(=S)NC(=O)c1ccc(Cl)cc1
→ 0.1	.
- O=C(O)CN1C(=O)c2ccc(Br)cc2C1=O
→ 1.6	-0.4

Brought forward from above: 2 compounds, followed by the next part.
Values run as follows: Ab BasE inh	KSHV LANA nucl
- NC(=S)NC(=O)c1ccc(Cl)cc1
→ 0.1	.
- O=C(O)CN1C(=O)c2ccc(Br)cc2C1=O
→ 1.6	-0.4
- NCC1CC2CCC1C2 (stereo unspecified)
→ -1.2	0.013
- O=S(=O)(c1cccc2nonc12)N1CCCN(c2nccc(C(F)(F)F)n2)CC1
→ 1.2	.
- Cc1cccc(CCNC(=O)C2CCCN(c3cnccn3)C2)c1 (stereo unspecified)
→ 2.7	0.65
- C=CCn1c(Cc2ccc(OC)cc2)nnc1SC(C)C(=O)Nc1nnc(C)s1 (stereo unspecified)
→ 0.9	0.89
